Bioassay records (PubChem BioAssay)
PrP 5UTR inh: inhibition of PrP 5' UTR reporter expression; cell-based PrP 5' UTR mRNA reporter, plate reader; inhibition, % (concentration not given with the values); actives 0.35% (n = 340,000); AID 488862;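 active = every replicate at 50% or more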;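 also: 0 = median of the neutral control wells; tested in H4 reporter cells; numbers are from one replicate; inactives centre near -14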
Bead autofluor: compound fluorescence in toxin protease inhibitor counterscreen; compound autofluorescence counterscreen, microsphere flow cytometry; active compounds read high; fluorescence intensity (no concentration beside the values); actives 3.1% (n = 360,000); AID 624483;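 active = at least 3 SD above the mean of all compounds, about 16000 in these data; inconclusive = too few beads counted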;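 also: 100 nL of 1 mM stock went into each well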
Sa RN4220 lethal: S. aureus RN4220 growth inhibition; OD600, 16 h; inhibition, % (no concentration beside the values); actives 0.33% (n = 330,000);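 active = z-score of -3 or lower and OD600 up to 0.18 on both plates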;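 also: plate controls were untreated cells for no effect and reference antibiotic for full effect; stock transfer was 100 nL into about 80 µL; one replicate is shown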
Sa ugtP lethal: kills S. aureus RN4220 lacking UgtP; S. aureus RN4220 ugtP deletion, OD600 growth, 16 h; some inactives read as strong as hits; actives 0.54% (n = 330,000); growth inhibition, % (test concentration not listed);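 active = z-score under -3 and OD600 up to 0.15 on both plates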;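 also: plate controls were untreated wells for no effect and antibiotic for full effect; wells of about 80 µL received 100 nL stock; the first replicate is given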
BJeLR lethal: BJeLR cell viability loss. BJeLR (HRASV12) viability, CellTiter-Glo ATP luminescence, 48 h; reference of the scale not given here. inhibition, % (test concentration not listed). actives 0.17% (n = 300,000);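 active = replicate mean above 50%; inconclusive = above 50% but judged a plate artefact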;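 also: 50 nL library stock added to about 25 µL; numbers are from one replicate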
Mtb hypoxia rep: Mtb hypoxia fluorescent reporter inhibition | M. tuberculosis hypoxia-regulated fluorescent reporter, fluorescence | fluorescence inhibition, % (no concentration beside the values) | actives 0.1% (n = 300,000) | AID 1159583;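 active = 35 to 45% if threefold the growth effect, above 45% if 1.5-fold the growth effect; inactive = the rest, general growth blockers included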;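 also: wells of about 50 µL received 100 nL stock; 0% = vehicle wells and 100% = reference inhibitor wells; whole bacteria with a GFP reporter of the hypoxia response; strong numbers were not always called active; many hits fall short of the cut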
Mtb hypoxia rep growth: second read-out of Mtb hypoxia rep, no call of its own (marks repeat the call); growth inhibition, %; measured here: M. tuberculosis growth (absorbance);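 0% = vehicle and 100% = reference antibiotic; read after six days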
* = called active by the depositor; ? = inconclusive; · = not tested or not shown. No enrichment for hits, and some 4.1% of all compounds hit somewhere here.

SMILES	PrP 5UTR inh	Bead autofluor	Sa RN4220 lethal	Sa ugtP lethal	BJeLR lethal	Mtb hypoxia rep	Mtb hypoxia rep growth
COc1cc2c(cc1OC)CN(CC(=O)Nc1cccc([N+](=O)[O-])c1)CC2	-1	2984	3.1	15	6	2	-16
Cc1ccc(NC(=O)COC(=O)c2cc(C)nc3ccccc23)c([N+](=O)[O-])c1	-20	2011	2.3	3	0	3	1
Cc1occc1C(=O)NNC(=O)Nc1ccc(Cl)c(Cl)c1	-40	8034	-4.1	-13	1	-6	7
COc1cccc(-n2c(SC)nnc2-c2c[nH]c3ccccc23)c1	-2	6432	6.6	-10	6	2	9
Cc1cccc(NC(=O)c2nc[nH]c2C(=O)N[C@@H](Cc2ccccc2)C(=O)OC(C)(C)C)c1	-24	4058	·	·	-4	·	·
CCNC(=S)N1CCNC(=O)C1CC(=O)OC (stereo unspecified)	5	2468	2.9	0	-4	8	10
CCOCCCNC(=O)C(c1ccc(OC)cc1)N(Cc1ccc2c(c1)OCO2)C(=O)c1ccccc1O (stereo unspecified)	-13	2328	7.1	0	5	-3	3
COc1ccc(CCN(C)C(=O)c2cncc(Br)c2)cc1OC	-11	3842	-4.1	4	3	-3	-9
O=C(Cn1cc(C(=O)C2CC2)c2ccccc21)NCc1ccc2c(c1)OCO2	-19	4329	-2.2	-3	3	0	9
O=C1CCCN1c1ccc(CNS(=O)(=O)c2ccc(F)cc2)cc1	5	4704	0.4	1	6	·	·
Cn1cc(-c2cccc(C(F)(F)F)c2)cc(C#N)c1=O	-8	3473	4.8	11	6	-5	-3
COc1cc(O)ccc1C(=O)CCc1ccc(O)cc1	-11	4334	1.2	7	6	-7	-10

Taken from the results shown (5 entries):
SMILES	PrP 5UTR inh	Bead autofluor	Sa RN4220 lethal	Sa ugtP lethal	BJeLR lethal	Mtb hypoxia rep	Mtb hypoxia rep growth
COc1ccc(CCN(C)C(=O)c2cncc(Br)c2)cc1OC	-11	3842	-4.1	4	3	-3	-9
O=C(Cn1cc(C(=O)C2CC2)c2ccccc21)NCc1ccc2c(c1)OCO2	-19	4329	-2.2	-3	3	0	9
O=C1CCCN1c1ccc(CNS(=O)(=O)c2ccc(F)cc2)cc1	5	4704	0.4	1	6	·	·
Cn1cc(-c2cccc(C(F)(F)F)c2)cc(C#N)c1=O	-8	3473	4.8	11	6	-5	-3
COc1cc(O)ccc1C(=O)CCc1ccc(O)cc1	-11	4334	1.2	7	6	-7	-10

The listing continues.
SMILES	PrP 5UTR inh	Bead autofluor	Sa RN4220 lethal	Sa ugtP lethal	BJeLR lethal	Mtb hypoxia rep	Mtb hypoxia rep growth
Cc1sc(NC(=O)c2ccco2)c(CN2CCN(c3ccc(F)cc3)CC2)c1C	-20	8160	1.4	-4	1	·	·
CCc1cccc(C)c1NC(=O)CSc1nnc(C)o1	-14	5568	4.8	1	8	-1	2
CCc1nnc(NC(=O)c2ccc(S(=O)(=O)N(CC(C)C)CC(C)C)cc2)o1	7	3275	61	48	·	5	5
COc1ccc2ccccc2c1CNCCc1ccccc1	-7	3440	2.0	-1	13	11	8
CCn1c(SCC(=O)Nc2nccs2)nnc1-c1ccccn1	-15	5942	2.3	6	9	11	-1
CCOC(=O)C1=C(CC)Nc2ccccc2N=C1NC(=O)c1ccc(S(=O)(=O)N2CCCC2)cc1	-15	4258	5.9	3	-8	4	5
COc1ccccc1NC(=O)Nc1cc(C(C)(C)C)nn1C	-14	·	0.7	1	-1	6	9
CC(=O)c1cccc(N2C(=NC(=O)COc3ccccc3)SC3CS(=O)(=O)CC32)c1 (stereo unspecified)	-12	6218	2.1	1	3	1	-3
CCOc1cc(C=NNC(=O)Cn2nc([N+](=O)[O-])cc2C)cc(Br)c1OCc1ccccc1F	·	·	-2.4	-27	·	-9	-8
CC(=NNc1cccc2cccnc12)c1ccc(N)cc1	·	·	4.6	3	·	6	0
COc1ccc(OC)c(S(=O)(=O)N2CCC(C(=O)NC(C)c3ccccc3)CC2)c1 (stereo unspecified)	-16	6175	2.3	2	1	13	10
O=S(=O)(Nc1nc2ccccc2[nH]1)c1ccc(Cl)cc1	-1	5821	1.2	-18	1	-12	12
O=C(O)c1cc2c(cc1NC(=O)c1c(F)cccc1Cl)OCCCO2	-16	4089	1.2	2	-1	4	4
NC1=NC[C@H](Cc2ccc(O)cc2)N1CCCCC1CCCCC1	-13	3012	100*	100*	18	4	17
CCN(CC)c1ccc(NC(=O)c2cc3ccccc3o2)c(C)c1	-31	11397	3.3	-2	-5	6	3
CC/C(=N\NC(=O)c1c(C)nc2ccccn12)c1ccc(Cl)cc1	-1	5549	·	·	0	·	·
CCc1ccc(-c2nc(SCC(=O)N3CCOCC3)n[nH]2)cc1	5	4501	1.1	-2	15	-13	2
COc1ccc(-n2c(=C(C#N)C(=O)N3CCN(C)CC3)sc(=Cc3cccs3)c2=O)cc1	·	·	4.3	12	·	4	3
C=CCCC(=O)Nc1ccc(Br)cn1	-46	4647	6.7	6	-5	12	9
S=c1[nH]nc(-c2ccccn2)n1N=Cc1ccc(-c2ccccc2Br)o1	·	·	8.8	13	·	7	14
Cc1occc1C(=O)N1CCCC(N2CCN(c3ccccc3F)CC2)C1 (stereo unspecified)	-4	5745	1.0	-3	5	9	17
COc1ccc(NS(=O)(=O)c2cc(NC(=O)Cc3n[nH]c(=O)c4ccccc34)ccc2OC)cc1	-7	·	4.7	4	·	7	9
Cc1ccc(NC(=O)C2CC(O)CN2C(=O)Oc2ccccc2)c(C)c1 (stereo unspecified)	-20	3758	1.0	-1	-2	5	-1
COc1ccc(C2CC(=O)C=C(c3cc(Cl)cc(Cl)c3)C2)cc1 (stereo unspecified)	·	·	8.6	14	·	6	6
Cc1ccc(-c2nc3ncccn3c2Nc2ccc3c(c2)OCCO3)cc1	-30	3883	2.1	-2	1	6	13
Cc1cccc(N2CCN(C(=O)COCc3cc(-c4ccc5c(c4)OCO5)on3)CC2)c1C	-33	·	-2.5	-10	-17	-10	-7
CN(C)C(CNC(=O)c1ccc(S(=O)(=O)NCc2ccco2)cc1)c1ccccc1 (stereo unspecified)	45	10794	·	·	17	·	·
O=[N+]([O-])c1cc(C(F)(F)F)ccc1NCCc1ccccn1	-29	6080	-0.7	-2	3	-5	-1
COc1cccc(N2C(=O)/C(=C/c3ccc(C)o3)C(=O)NC2=S)c1	-10	3720	4.4	14	4	16	-6
CCn1c(=S)[nH]c2sc3c(c2c1=O)CCCC3	-24	4536	9.3	-3	-11	2	5
COc1ccc(C2=NO[C@@H]3C(=O)N(c4ccc5c(c4)OCCO5)C(=O)[C@H]23)cc1OC	-1	?	0.6	-2	-4	7	-6
Cn1c(SCCCC(=O)c2ccc(Br)cc2)nnc1-c1ccncc1	-1	4455	5.0	9	1	4	3
O=C(COc1ncnc2ccccc12)NCCC1=CCCCC1	-15	2389	2.4	1	-8	6	0
CCOC(=O)c1ccc(NC(=O)c2cc(C)nn2-c2ccccc2)cc1	-12	4307	0.0	-2	0	-10	10
O=C(NC1CCN(Cc2ccc(Cl)c(Cl)c2)CC1)c1ccccc1	-7	5169	3.9	12	5	-6	8
Cc1ccc(S(=O)(=O)N2CCOCC2)cc1C(=O)OCC(=O)c1c(N)n(C)c(=O)n(C)c1=O	2	9079	2.0	-1	·	-9	3
CC(=NNC(=O)c1nnn(-c2nonc2N)c1-c1ccc2c(c1)OCO2)c1ccc(F)cc1	·	·	4.6	4	·	5	0
COc1ccc(-n2c(=O)[nH]c3cc(C(=O)NCCc4ccc(Cl)cc4)ccc3c2=O)cc1OC	-47	4185	-4.8	7	8	6	14
COc1ccc(C(C(=O)NC(C)(C)C)N(Cc2ccco2)C(=O)CCC(=O)Nc2ccccn2)cc1 (stereo unspecified)	-5	3418	4.1	-1	-14	-3	18
FC(F)(F)c1cccc(NC2=NCCCS2)c1	-21	4020	2.9	5	5	3	2
COc1ccc(-c2csc(NC(C)c3nc4cc(C(F)(F)F)ccc4n3CCOCCO)n2)cc1 (stereo unspecified)	-13	3965	-8.3	0	-4	-2	-1
Cc1nn(-c2ccc(F)cc2)c(N)c1C1(O)C(=O)Nc2ccccc21 (stereo unspecified)	-44	4358	-0.7	5	-3	16	-4
O=C(COc1ccccc1)NNC1=NS(=O)(=O)c2ccccc21	-19	2717	4.7	1	6	0	6
COc1ccc(S(=O)(=O)N2CCOCC2)cc1NC(=O)Cc1cccs1	-7	·	4.8	6	·	10	4
CCN1CCN(C(=O)C2CCN(S(=O)(=O)c3cccc4cccnc34)CC2)CC1	-5	5753	-0.4	4	-1	·	·
Cc1[nH]c(C)c(S(=O)(=O)NCCc2ccc(S(N)(=O)=O)cc2)c1C(=O)N1CCCC1	-7	5926	2.1	2	4	1	-3
Cc1ccc(C(=O)CSc2nnc(COc3cc(C)cc(C)c3)o2)cc1	-4	·	5.7	12	-2	2	-7
CC(C(=O)Nc1ccccc1Cl)c1ccc([N+](=O)[O-])cc1 (stereo unspecified)	-20	2428	2.3	-2	4	8	2
O=C(O)CC(CC(=O)O)(C(=O)O)c1ccccc1	-17	3968	5.4	3	3	3	7
O=C(CNCC1(N2CCOCC2)CCCCC1)Nc1ccc(Cl)cc1	-5	3397	-3.2	6	8	-4	17
CCOc1cc(C=O)ccc1OCCSc1ccc(C)cc1	-9	10538	-1.3	30	-19	-6	-2
COc1ccccc1C(=O)NCC(=O)NN=Cc1cc(Br)ccc1OCc1ccccc1	·	·	1.8	-5	·	-7	-1
Cc1ccc(C2C3=C(CCCC3=O)OC3=C2C(=O)CCC3)cc1	-13	2002	4.5	2	-6	7	2
COc1cc(NC(=O)c2cc(-c3cccs3)on2)cc(OC)c1OC	·	11493	0.8	-4	3	0	5
COc1ccc(CCNC(=O)c2ccccc2NS(=O)(=O)c2cc(C(=O)O)ccc2OC)cc1	-18	3529	4.5	-3	-11	4	1
Cc1nc2c(c(=O)n1CCC(C)C)c1nc3ccccc3nc1n2CC1CCCO1 (stereo unspecified)	-8	3295	-0.7	5	-3	-7	15
COc1cc(CO)ccc1OCc1nnnn1-c1ccc(C)cc1	-3	2051	1.3	1	-17	-10	-5
CCOC(=O)c1c(NC(=O)c2cccs2)sc(C)c1CC	1	11711	-2.9	6	-3	14	1
COc1cc(C(=O)OCC(=O)Nc2ccc(OC(F)F)cc2)cc(OC)c1OC	-30	3698	4.1	5	-14	-10	3
COc1cc([N+](=O)[O-])ccc1NC(=O)CCCOc1ccc(C)cc1	-14	3522	8.6	1	-7	·	·
(more compounds)
SMILES	PrP 5UTR inh	Bead autofluor	Sa RN4220 lethal	Sa ugtP lethal	BJeLR lethal	Mtb hypoxia rep	Mtb hypoxia rep growth
CCOc1ccc(C(=O)Nc2ccc3nc(N4CCN(CC)CC4)cc(C)c3c2)cc1	-10	2950	-2.1	-4	23	-1	-6
Cc1cc2c(=O)n(C)c(SCC(=O)Nc3cccc(O)c3)nc2s1	-12	2888	1.3	3	-2	2	2
CCc1nc(NCCc2ccccn2)c2nnn(Cc3ccccc3F)c2n1	-22	2930	3.9	6	-4	14	12
Cc1cc(C)c(C#N)c(Nc2ccccc2C)n1	-5	3952	5.7	7	-3	12	16
COc1cc(NC(=O)CSc2nc3[nH]ncc3c(=O)n2-c2ccc(Cl)cc2)cc(OC)c1	-7	5257	2.7	1	10	8	6
Cc1ccc(NCc2ccccc2)cc1	-7	4159	-1.0	3	2	6	2
Cn1c(=O)c2c(nc(NN=Cc3cccnc3)n2Cc2ccc(F)cc2)n(C)c1=O	·	·	-2.9	-26	·	-11	16
C/C(=N\Nc1nc(N2CCOCC2)nc(N2CCOCC2)n1)c1ccc([N+](=O)[O-])cc1	-3	3651	·	·	-5	·	·
COc1ccccc1/C=C/C(=O)Nc1cccnc1	-41	3167	0.2	0	2	16	5
CC(C)CCn1c(SCC(=O)N2CC(=O)Nc3ccccc32)nc2scc(-c3cccs3)c2c1=O	-17	2914	1.8	-3	-20	3	4
CCOc1ccc(S(=O)(=O)N2CCC(C(=O)NCC(=O)Nc3cccc(Cl)c3C)CC2)cc1	-16	?	3.0	9	·	3	6
COc1ccccc1N1CCN(C(=O)c2cc3c(=O)n(C)c4ccccc4c3n2C)CC1	-9	6390	0.3	7	-7	·	·
COc1cccc(C(=O)N2c3ccccc3Sc3ccccc32)c1	-6	2724	-3.9	56	-1	7	6
CC(C)(C)NC(=O)Nc1ccc2nccnc2c1	-49	·	4.8	2	3	-6	4
